AmpC nodet inh: blocks E. coli AmpC beta-lactamase in absence of detergent; AmpC nitrocefin hydrolysis, absorbance 480 nm, no detergent; potencies from a single point are estimates; P00811; 71,000 compounds, 1.8% hits; Potency, µM (titrated, usually from 28.7 µM), for the others: at the highest dose activity change, negative = inhibition; active = falling curve, for most hits resting on a single point; inconclusive = weak or doubtful change; inactive = flat or rising curve; note: % of control where 0% means no effect; about half of the hits show no inhibition at the top dose; a quarter of the inactives give rising signals
Target sequence (P00811 whole entry, looked up): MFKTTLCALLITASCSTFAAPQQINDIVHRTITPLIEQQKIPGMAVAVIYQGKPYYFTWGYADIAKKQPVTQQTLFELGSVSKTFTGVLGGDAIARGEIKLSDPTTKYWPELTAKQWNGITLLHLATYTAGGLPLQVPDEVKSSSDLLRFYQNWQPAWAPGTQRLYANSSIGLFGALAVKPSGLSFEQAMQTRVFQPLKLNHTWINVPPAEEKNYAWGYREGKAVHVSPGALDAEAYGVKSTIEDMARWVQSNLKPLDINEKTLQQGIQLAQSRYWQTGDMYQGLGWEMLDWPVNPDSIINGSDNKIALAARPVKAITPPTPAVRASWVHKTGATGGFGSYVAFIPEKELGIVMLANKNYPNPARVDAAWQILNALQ
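AmpC in 20 mM phosphate buffer pH 7.0 was preincubated 15 min at room temperature with compounds. Nitrocefin (800 uM stock) was then added and hydrolysis followed at 480 nm every 20 s for 4 min.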
An asterisk follows results filed as active; ? = inconclusive; & = joins results of further samples; [ ] = another dose, or the depositor's remark. Potency is the fitted concentration of half-maximal effect. A portion of the library; count on the stated rates, not on these rows.

SMILES | AmpC nodet inh
Cc1cc(NC(=O)Cc2cn3ccsc3n2)n(-c2ccccc2)n1 | 0%
CCc1nnc(NC(=O)CCN2C(=O)c3ccccc3S2(=O)=O)s1 | 9%
CCNc1ncc2nc(-c3ccccc3)c(=O)n(C3CC3)c2n1 | 5%
NCCc1nnc(SCc2ccc(F)cc2)o1 | -10%
COc1ccc(C(O)CNc2ccc(C)cc2)cc1 (stereo not drawn) | -1%
C[C@@H](CNC(N)=O)NC(N)=O | 6%[5.75 µM]
CCOC(=O)N1CCC(N(C(=O)Nc2ccccc2)C(C)CC)CC1 (stereo not drawn) | 19%
Cc1cc(C)c2c(n1)nn1c(-n3ccnc3)cc(C)nc21 | 32%
O=C(O)c1cc(S(=O)(=O)Nc2ccc3oc(=O)sc3c2)ccc1O | -9%
CCCc1[nH][nH]c(=O)c1C(c1cccc(Cl)c1)C(C#N)C#N (stereo not drawn) | -9%
O=S(=O)(Nc1cnc2ccccc2c1)N1CCCCCC1 | -2%
CCOC(=O)c1nnn(-c2nonc2OC)c1-c1ccccc1 | 5%
CCCCCCNc1c(C(=O)OCC)c(=O)[nH]c2ccccc12 | 12%
COc1ccc(CNc2ccnc(-c3ccoc3)n2)c(OC)c1 | 79%
N=C(N)CCNC(=O)[C@@H]1CCC(N)=N1 | 1%[5.75 µM]
CCOC(=O)c1[nH]c2cc(OC)c(OC)cc2c1NC(=O)CN1CCN(C)CC1 | 4%
COc1cc(CNc2ncn[nH]2)cc(Br)c1OC | -14%
CCn1cc(C(=O)NCc2ccco2)c2cc(OC)c(OC)cc2c1=O | 12%
CCOC(=O)C1CCN(C(=O)N2CCOCC2)CC1 | -2%
O=C(O)c1cc(N2C(=O)C3C4C=CC(C4)C3C2=O)ccc1NCc1cccnc1 (stereo not drawn) | 5%
O=C(Nc1ccccc1)N1CCC2(CC1)CCN(S(=O)(=O)c1ccccc1)CC2 | 27%
O=C(NCc1nnc(SCC(=O)N2CCN(c3ccccc3)CC2)o1)c1ccco1 | 0%
N#C/C(=C\c1ccc(O)c(O)c1)S(=O)(=O)c1ccccc1 | ?
Cc1ccc(SCC(=O)NCc2ccco2)cc1 | -10%
Cc1ccc(S(=O)(=O)N2CCN(c3nc4ccccc4nc3-n3nc(C)cc3C)CC2)cc1 | 70%
CN(Cc1ccccc1)c1nc2c(c(=O)[nH]c(=O)n2C)n1CCCc1ccccc1 | 102%
CN(C)CCNC(=O)c1ccc(COCC(F)(F)F)cc1 | -5%
CCCNC(=O)CN(C)C(=O)c1n[nH]c2ccccc12 | -2%
O=C(Nc1ccc(Cc2ccc(NC(=O)N3CCOCC3)cc2)cc1)N1CCOCC1 | 13%
COCC(=O)Nc1cc(OC)ccc1OC | -4%
COC(=O)c1cc(NC(=O)Cn2c(=O)cnc3ccccc32)cc(C(=O)OC)c1 | 7%
COc1cc(NS(=O)(=O)c2ccc(OC)c(OC)c2)cc(OC)c1 | -3%
O=C(Nc1ccccn1)[C@@H]1CCC(=O)N1C(=O)OCc1ccccc1 | 6%
CS(=O)(=O)Nc1ccccc1C(=O)Nc1ccc2c(c1)OCCO2 | -11%
CCOC(=O)N1CCN(c2c(NCc3cccs3)c(=O)c2=O)CC1 | 4µM*[single pt active]
O=C(CSc1ccccc1C(=O)O)Nc1cccc(C(=O)O)c1 | -7%
O=C(NCc1ccccc1)c1c(F)c(F)c(F)c(F)c1F | -5%
CC1CCC(C(=O)NC(C(=O)NCCCN2CCOCC2)C(C)C)CC1 (stereo not drawn) | -7%
Oc1cc(O)c2c(c1)O[C@H](c1ccc(O)c(O)c1)[C@@H](O)C2 | 7%
Cc1cccc(N2CCN(C(=O)c3ccncc3)CC2)c1C | 45%
COc1ccc(OC)c(C2CC(=O)N3CN(c4cccc(Cl)c4)CSC3=C2C#N)c1 (stereo not drawn) | -23%
O=C(NCc1ccco1)C1CCCN(S(=O)(=O)c2ccc(-n3cnnn3)cc2)C1 (stereo not drawn) | 28%
COC(=O)C1=C(C)Nc2ncnn2C1c1ccc(C)o1 (stereo not drawn) | 13%
O=C1c2cccnc2C(O)N1Cc1ccccc1 (stereo not drawn) | -8%
N#Cc1nc(COc2ccccc2)oc1NCCCn1ccnc1 | 9%
Brc1ccc(-c2nn3c(-c4ccccn4)nnc3s2)o1 | 0%
Cc1cc(=O)[nH]c(Nc2cccc(C(F)(F)F)c2)n1 | -5%
CCCN1C(=O)c2cc(C(=O)NC3CCCC3)ccc2C1O (stereo not drawn) | 4µM*[single pt active]
COc1cccc(CN2CCCCC2c2cccnc2)c1 (stereo not drawn) | 3%
CCOC(=O)c1sc(N2C(=O)C(O)=C(C(=O)c3ccco3)C2c2ccccc2)nc1C (stereo not drawn) | -14%
FC(F)(F)c1cc(-c2ccccc2)nc(N2CCCCCC2)n1 | -2%
O=C(Nc1ccc(N2CCN(C(=O)c3ccco3)CC2)cc1)c1ccc(F)cc1 | 34%
O=C(CCn1c(=O)sc2ccccc21)Nc1nccs1 | -21%
COCCn1nnnc1C(CC(C)C)N1CCN(C(=O)c2ccco2)CC1 (stereo not drawn) | 6%
Cc1nc2ccc(S(=O)(=O)NC(C(=O)NC3CCCC3)C(C)C)cc2s1 (stereo not drawn) | 4µM*[single pt active]
CC(C)c1cc(NC(=O)CSc2nnc(-c3ccccc3F)n2C)on1 | 19%
Cc1ccc(-c2nn(C)c(=O)c3ccccc23)cc1CNS(C)(=O)=O | 46%
Cc1ccccc1P(=O)(CO)c1ccccc1C | 20%
Cc1ccc(N2CC(C(=O)Nc3ccncc3)CC2=O)cc1 (stereo not drawn) | 5%
CCN(CC)S(=O)(=O)c1cccc(-c2nnc(SCC(=O)c3cc(C)n(C4CC4)c3C)o2)c1 | 37%

Next compounds.
SMILES | AmpC nodet inh
COc1ccc(C(=O)N2CCCC(c3nc(-c4cccs4)no3)C2)cc1 (stereo not drawn) | 47%
COc1ccc(NC(=O)c2cnc3ccccn3c2=O)cc1OC | -4%
CN(C)CCN=Cc1c(O)n(CCC2=CCCCC2)c(=O)[nH]c1=O | -2%
CC1(C)CCC(C)(C)c2c1ccc(O)c2Cc1c(O)ccc2c1C(C)(C)CCC2(C)C | -29%[5.75 µM]
COc1ccccc1NC=C1C(=O)OC(C)(C)OC1=O | 5%
COC(=O)c1c(NC(=O)c2cccs2)sc2c1CCCC2 | -6%
CC(C)(C)c1nc(NCC2CCCO2)c2nnn(Cc3ccccc3)c2n1 (stereo not drawn) | 31%
O=C(C1=C(O)C(=O)N(CCN2CCOCC2)C1c1ccccn1)c1cccs1 (stereo not drawn) | -10%
O=C(Nc1nncs1)c1c(F)c(F)c(F)c(F)c1F | -5%
COC1(c2cc(-c3ccccc3)nc(N)n2)CCCCC1 | 42%
CCCCC(CC)C(=O)Nc1ccccc1C(=O)NC(C)C (stereo not drawn) | -6%
C=CCc1cccc2cc(C(=O)N3CCN(C(=O)OCC)CC3)c(=O)oc12 | 92%
CC1=C(C(=O)NCc2ccc3c(c2)OCO3)C2(CCC(C)CC2)OC1=O (stereo not drawn) | 22%
O=c1[nH]c(=O)n(Cc2ccccc2)c(O)c1C=NCCCn1ccnc1 | -1%
O=c1ccc2c(o1)/C(=C/C=C(Cl)Cl)CCC2 | 1%
Cc1cc2nc(NC3=NCN(Cc4ccc5c(c4)OCO5)CN3)nc(C)c2cc1C | -8%
Cc1cc(=O)oc2cc(OCc3nnc(-c4ccccc4Br)o3)ccc12 | 2%
O=C(NCC1CCCO1)c1sc(=S)n2c1[nH]c(=O)c1ccc(C(=O)N3CCCCC3)cc12 (stereo not drawn) | -2%
CC(C)OC(=O)NCCOC(=O)Nc1cccc(Cl)c1 | -1%
COc1ccccc1NC(=O)CSc1nnc(C2CCCCC2)o1 | 16%
COCCn1c(C)cc(C(=O)COC(=O)CCc2ccc(S(=O)(=O)N3CCOCC3)cc2)c1C | 119%
O=C(CCc1ccccc1)Nc1cccc(-c2nnc(-c3ccco3)o2)c1 | 7%
CC1(CCc2ccc3c(c2)OCO3)NC(=O)c2ccccc2N1 (stereo not drawn) | -9%
CC(=O)COC(=O)c1cccc(N2C(=O)C3C4C=CC(C4)C3C2=O)c1 (stereo not drawn) | 30%
O=C(Nc1cccc(C(F)(F)F)c1)c1cccnc1 | 16%
CCN(CC)C(=O)c1cc2sc3ccccc3c2s1 | 54%
COc1ccc(O)c(C2NC(CC(C)C)(C(=O)O)C3C(=O)N(Cc4ccccc4)C(=O)C23)c1 (stereo not drawn) | 2%
Cc1ccc(NC(=O)C2C3C=CC4(CN(Cc5cccnc5)C(=O)C24)O3)cc1F (stereo not drawn) | 11%
CSCC[C@H](C=O)NC(=O)[C@H](CC(C)C)NC(=O)[C@H](CC(C)C)NC(C)=O | 17%
NC(=O)C(=O)O | -6%
CCCNC(=O)CN(C1CCCCC1)S(C)(=O)=O | -4%
CC1CCc2c(sc3ncnc(N4CCOCC4)c23)C1 (stereo not drawn) | 73%
CNc1nnc(CSc2nc3ccccc3s2)s1 | 19%
CC1(C)CC(=O)c2cc(OCC(=O)NCCCN3CCN(c4ccc(F)cc4)CC3)ccc2O1 | 105%
O=C(NC1CCCC1)c1sc(=S)n2c1[nH]c(=O)c1ccccc12 | -21%
CCOC(=O)c1cnc2c(C(=O)OC)cccc2c1NCc1ccco1 | 74%
Cc1ccc(Nc2nc(N)nc(CN3CCCCCC3)n2)c(C)c1 | 10%
CCOC(=O)c1ccc(-n2c(N)c(C(=O)NCc3ccco3)sc2=S)cc1 | 32%
CCCC1=C(C(=O)OCC)C(c2cc(Cl)cc(OC)c2OCC(=O)OCC)NC(=O)N1 (stereo not drawn) | 44%
Cc1cc(C)n(-c2nc3c(c(=O)[nH]c(=O)n3C)n2CC(C)C)n1 | -3%
CCCCn1c2nc3ccccc3nc2c2c(=O)n(CCC(C)C)cnc21 | 1%
CCOc1ccc(-n2cc(C(=O)N3CCC(C)CC3)c3cc(OC)c(OC)cc3c2=O)cc1 | 139%
CC1(C)CC2CC(C)(CN2CC(=O)C(C#N)c2ccccc2)C1 (stereo not drawn) | 4%
COc1ccc(S(=O)(=O)Cc2ccc(C(=O)N3CCN(c4cc(Cl)ccc4C)CC3)o2)cc1 | 93%
CCC(Sc1nc(-c2ccccc2)cc(=O)[nH]1)C(=O)O (stereo not drawn) | -3%
CCOc1ncccc1C(=O)OCC(=O)N1CC(=O)Nc2ccccc21 | -2%
N#C/C(C(=O)c1ccccc1)=C1/SC=C(N)N1c1ccccc1 | 13µM*
CCc1cc2c(N3CCN(c4nnc(CC)s4)CC3)ncnc2s1 | 58%
C=C(C)COc1ccc(-c2nc(N)ncc2-c2ccc(OC)cc2)c(O)c1 | 5%
CC(C)c1ccc2c(c1)CC[C@@H]1[C@@](C)(CN)CCC[C@@]21C | 59%
CC(C)C[C@H]1C(=O)N2CCC[C@@H]2[C@]2(O)O[C@](NC(=O)[C@H]3C=C4c5cccc6[nH]cc(c56)C[C@H]4N(C)C3)(C(C)C)C(=O)N12 | 106%
CC1(C)C=C(c2ccc(O)cc2)CC(C)(C)N1 | -2%
CC(=O)S[C@H]1CC2=CC(=O)CC[C@@]2(C)[C@H]2CC[C@@]3(C)[C@H](CC[C@]34CCC(=O)O4)[C@@H]12 | 63%[12.8 µM]
Cc1ccc(CCNC(=O)C2CCCN(S(=O)(=O)c3cnc[nH]3)C2)cc1 (stereo not drawn) | 2%
COc1ccc2c3c(c(=O)oc2c1OCC(=O)C(C)(C)C)CCCC3 | 28%
CN1CCN(C(=O)C2CCN(S(=O)(=O)c3cnc[nH]3)CC2)CC1 | 2%
O=C1c2ccccc2C(=O)N1c1n[nH]c(CCc2ccccc2)n1 | 6%
Cc1csc(SCC(=O)Nc2ccccn2)n1 | 4%
CCOC(=O)N1CCC(NC(=O)C2CCC(Cn3c(=O)[nH]c4ccccc4c3=O)CC2)CC1 (stereo not drawn) | 44%
c1ccc(N2CCN(c3nnnn3-c3ccccc3)CC2)cc1 | 32%
COc1ccc(-n2nnc3c(=O)n(CC(=O)N4CCC(C)CC4)cnc32)cc1 | -3%
NC[C@H](O)c1ccc(O)c(O)c1 | 9%&-5%
C(=N/n1c2ccccc2c2ccccc21)/c1ccco1 | -7%

Assay outcomes as filed in PubChem BioAssay.
